High-throughput results (PubChem BioAssay)
RecA splice inh – inhibitors of M. tuberculosis RecA intein splicing. P9WHJ3. cell-free RecA intein splicing, fluorescence. inhibition, %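 (about 9 µM by stock and volumes)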. 290,000 compounds, 0.75% hits. AID 2221; in the data active = inhibition above about 30%;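 note: 0% = vehicle wells and 100% = reference inhibitor control wells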
Target sequence (P9WHJ3 whole entry, looked up, canonical isoform): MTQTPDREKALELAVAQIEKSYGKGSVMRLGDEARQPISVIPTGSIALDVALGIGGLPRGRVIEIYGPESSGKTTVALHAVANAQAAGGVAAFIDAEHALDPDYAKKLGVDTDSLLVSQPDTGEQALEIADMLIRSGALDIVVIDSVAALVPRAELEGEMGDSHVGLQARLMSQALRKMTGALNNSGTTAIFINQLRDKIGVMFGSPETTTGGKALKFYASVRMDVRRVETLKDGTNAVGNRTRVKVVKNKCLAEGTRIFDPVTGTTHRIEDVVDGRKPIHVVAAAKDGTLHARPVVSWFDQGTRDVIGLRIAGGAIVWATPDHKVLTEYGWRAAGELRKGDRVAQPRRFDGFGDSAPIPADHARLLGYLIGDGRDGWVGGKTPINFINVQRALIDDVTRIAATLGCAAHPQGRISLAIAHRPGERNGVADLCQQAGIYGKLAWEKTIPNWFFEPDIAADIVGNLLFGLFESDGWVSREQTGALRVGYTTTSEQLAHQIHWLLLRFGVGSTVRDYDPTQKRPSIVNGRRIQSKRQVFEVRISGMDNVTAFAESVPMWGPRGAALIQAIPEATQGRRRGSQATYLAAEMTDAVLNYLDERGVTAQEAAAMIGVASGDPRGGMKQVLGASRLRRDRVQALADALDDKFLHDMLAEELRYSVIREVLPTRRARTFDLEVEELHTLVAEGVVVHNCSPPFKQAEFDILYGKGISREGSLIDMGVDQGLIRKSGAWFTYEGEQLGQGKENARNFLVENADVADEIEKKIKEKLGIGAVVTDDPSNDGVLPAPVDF
Mtb bLac sens – beta-lactam sensitization of Mtb H37Rv. M. tuberculosis H37Rv growth with meropenem, percent inhibition; hits of this screen are not shown here. inhibition, % at 25 µM. 330,000 compounds, 0.27% hits. AID 434955;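 active = about 74% or more and at least 40 points above the plate without the antibiotic, then above 30% in a dose series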;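 note: growth measured after seven days incubation then overnight dye step; 0% = bacteria only wells and 100% = bacteria with antibiotic; twin plates without the antibiotic show which effects depend on it; some results filed as inactive read as strong as hits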
YopH PTP inh – YopH (Yersinia) phosphatase inhibition; 140,000 compounds, 0.16% hits; fluorescence Ex485/Em525; inhibition, %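 (about 10 µM by stock and volumes)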;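 active = inhibition of 50% or more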;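 note: controls were vehicle for no effect and minimum signal wells for full effect; inactives centre near -20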
Mtb growth – M. tuberculosis H37Rv growth inhibitors, H37Rv strain (AID 1626); M. tuberculosis H37Rv growth inhibition; higher % means a stronger effect; inhibition, % at 10 µM, or IC50 in µM where a hit was titrated; 220,000 compounds, 0.95% hits;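 active = confirmed in a dose series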;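 note: bacteria incubated seven days before Alamar blue readout; 0% = bacteria only wells and 100% = bacteria with antibiotic wells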
Arbovirus inh – antivirals against arbovirus infection. arbovirus infection cell-based antiviral screen. inhibition, % at 10 µM. 200,000 compounds, 0.37% hits. AID 1251;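 active = inhibition from about 30%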;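 note: bluetongue infection of BSR cells; cell survival read as ATP light after 72 h; 0% = infected wells without compound and 100% = uninfected wells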
Arbovirus inh repeat – also measured in Arbovirus inh; calls as there; inhibition, %; measured here: 10K subset replicate screen; many hits read low in the repeat;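 first of two repeat runs on a subset; 0% = infected and 100% = uninfected wells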
The depositor's hits bear a star; i = inactive; x = not tested or not shown.

SMILES	RecA splice inh	Mtb bLac sens	YopH PTP inh	Mtb growth	Arbovirus inh	others
CC(=O)Nc1sc(/C(C#N)=C/c2ccc(Cl)c(Cl)c2)nc1-c1ccc(C)cc1	x	x	-7	0%	-3
Cc1ccc(C)c(N2CCN(C(=O)CCC(=O)Nc3nnc(CC(C)C)s3)CC2)c1	0.9	7	x	x	x
Cc1ccc(OCC(=O)N(Cc2cccc(Cl)c2)C2CCS(=O)(=O)C2)cc1C (stereo not drawn)	2.7	-3	x	x	x
Cc1cc(NC(=O)CSc2nc3ccccc3c(=O)n2CCCC(=O)NCc2ccccc2)n[nH]1	-9.3	5	3	-1%	2
FC(F)(F)c1cccc(C2NCc3ccccc3-n3cccc32)c1 (stereo not drawn)	-2.7	-1	x	x	x
CC(C)n1cc(CN2CCC(C(=O)Nc3cccc(-c4cscn4)c3)CC2)cn1	2.2	2	x	x	x
Cc1ccc2c(c1)N(S(=O)(=O)c1cc(-c3onc(C)c3C)ccc1C)CCO2	20	11	x	x	x
O=S(=O)(NCc1ccco1)c1ccc(Cl)cc1Cl	-1.5	0	x	x	x
CCOC(=O)c1cc(S(=O)(=O)NC2CCC(C)CC2)cn1C (stereo not drawn)	3.0	-1	x	x	x
COc1cc(OC)c(NC(=O)Cn2cnc3sc(C)c(S(=O)(=O)N4CCOCC4)c3c2=O)cc1Cl	-1.6	-4	x	x	x
COc1ccc(C(=O)NC(CC(=O)O)c2cc([N+](=O)[O-])ccc2Cl)c(SC)c1 (stereo not drawn)	-2.5	-6	x	4%	-10
C=CCNc1nc(N(c2ccccc2)c2ccccc2)nc(-n2ccnc2)n1	0.1	3	-33	7%	-10
CCN(CC(=O)NCc1ccc(F)cc1)C(=O)/C=C/c1ccc(OC)c(S(=O)(=O)NC(C)C)c1	-1.4	0	x	x	x
CCCC(=O)N(CCc1ccccc1)Cc1nc2ccccc2c(=O)[nH]1	-0.6	1	-29	1%	7
O=C(COC(=O)c1ccccc1C(=O)N1CCN(c2ccccc2)CC1)Nc1ccccc1	0.6	3	x	3%	17
Cc1cc(C(=O)COc2ccccc2C(N)=O)c(C)n1CC1CCCO1 (stereo not drawn)	-2.5	1	x	1%	11
O=C(NCCOc1ccccc1)C1CCCCC1	1.6	5	x	4%	2
CCCOc1ccc(-c2nc(N)n[nH]2)cc1	-0.8	-2	-50	-2%	-1
CC(=O)Nc1cc2nc(C)n(Cc3ccccc3)c2nc1C	0.1	-2	x	x	x
COC(=O)C1=C(c2cc3ccccc3o2)C[C@@H]2CC[C@H]1N2C(=O)NCc1ccccc1	8.8	8	x	5%	x
Cc1ccc(Sc2ccc(C(=O)N3CCOCC3)cc2[N+](=O)[O-])cc1	-1.6	-1	x	x	x
CCN1CCN(c2cc(C)c3cc(NC(=S)N4CCN(c5ccc(F)cc5)CC4)ccc3n2)CC1	-2.3	11	x	6%	-7
CCOC(=O)c1c(CN2CCN(C)CC2)oc2ccc(OC)cc12	-1.2	0	-23	-1%	7
CCOCCn1c(N2CCN(c3ccccc3)CC2)nc2c1c(=O)[nH]c(=O)n2C	-3.1	0	x	0%	0
COc1ccc(CCNc2ncnc3c2c(C)c(C)n3CCO)cc1OC	-0.4	-4	x	x	x

Overlap with the part before: 3 compounds; new compounds follow.
SMILES	RecA splice inh	Mtb bLac sens	YopH PTP inh	Mtb growth	Arbovirus inh	others
CCOC(=O)c1c(CN2CCN(C)CC2)oc2ccc(OC)cc12	-1.2	0	-23	-1%	7
CCOCCn1c(N2CCN(c3ccccc3)CC2)nc2c1c(=O)[nH]c(=O)n2C	-3.1	0	x	0%	0
COc1ccc(CCNc2ncnc3c2c(C)c(C)n3CCO)cc1OC	-0.4	-4	x	x	x
COc1ccc(Nc2nc(NCCO)nc(N3CCCC3)n2)cc1	-1.8	3	x	-4%	x
Cc1ccc(NC(=O)COC(=O)CCOc2ccccc2C)cc1	3.9	4	x	3%	2
O=C(COC(=O)/C=C/c1ccc(F)cc1)Nc1cccc(S(=O)(=O)N2CCCC2)c1	4.6	5	x	-2%	3
COc1ccc2cc(CCNS(=O)(=O)c3ccc(NC(C)=O)cc3)c(=O)[nH]c2c1	-1.6	0	x	x	x
O=C(O)c1cc(-c2ccc(/C=C3/SC(=S)N(Cc4ccccc4)C3=O)o2)ccc1Cl	x	x	x	-2%	9
Cn1c(=O)[nH]c(=O)c2c1nc([N+](=O)[O-])n2Cc1ccccc1	62*	100	x	72%	x
Cc1nnc(SCC(=O)NCCN2C(=O)CSC2=O)n1-c1ccccc1	-0.1	-4	x	2%	1
Cc1ccc(CNS(=O)(=O)c2ccc3c(c2)NC(=O)CS3)cc1	4.9	-5	x	x	x
CCC(NC(=O)c1ccc([N+](=O)[O-])cc1[N+](=O)[O-])c1ccccc1 (stereo not drawn)	12	41	-3	-5%	-2
O=c1nc(/C=C/c2cc([N+](=O)[O-])ccc2Cl)cc(C(F)(F)F)[nH]1	4.6	7	-11	-7%	-41
CCCCN(CC)CCNC(=O)CNC(=O)Cn1ccc2ccccc2c1=O	-0.3	-2	x	-2%	15
Cc1cccc(C(=O)O/N=C2/CC3CCC2(C)C3(C)C)c1 (stereo not drawn)	6.9	4	32	5%	-1
CCCc1ccc(-c2cc(C(=O)NN3CCOCC3)c3ccccc3n2)cc1	-0.1	72	-26	16%	8
COc1cccc(-n2c(O)c(C=NCCN3CCNCC3)c(=O)[nH]c2=S)c1	-0.5	-6	x	x	x
COc1ccc(NC(=O)CN(C)C(=O)CCCc2nc3ccccc3s2)cc1	0.0	-6	x	x	x
CCOC(=O)Cc1csc(NC(=O)c2ccc(S(=O)(=O)N3CCCCC3)cc2)n1	-1.0	0	-24	-1%	11
Cc1cccnc1NC1=NCC(C)S1 (stereo not drawn)	0.1	-5	-11	0%	-4
COc1ccc(CCNC(=O)CCn2c(=O)c3ccccc3n(CC(=O)NCC3CCCO3)c2=O)cc1OC (stereo not drawn)	0.9	-2	x	2%	-3
Cc1ccc(S(=O)(=O)c2cc3ccccc3oc2=Nc2ccc3c(c2)OCCO3)cc1	-1.7	0	-35	0%	-9
CCOC(=O)Cc1c(C)[nH]n(-c2ccccc2)c1=O	-1.9	43	x	11%	x
CCOC(=O)COc1nc(OC)nc(N2CCOCC2)n1	-1.4	-3	-29	1%	9
CCC(=O)N1CCc2cc(S(=O)(=O)CCC(=O)Nc3ccc(OC)c(OC)c3)ccc21	-2.2	-3	x	-2%	8
Cc1cccn2c(=O)c3cc(C(=O)NCCN4CCOCC4)c(=N)n(Cc4cccnc4)c3nc12	i	4	x	x	x
O=C(NCCS(=O)(=O)N1CCN(c2ccccc2F)CC1)c1cc(=O)c2ccccc2o1	-0.1	-2	x	x	x
O=c1c2ccccc2oc2nc(-c3ccco3)n(Cc3ccccc3)c(=O)c12	2.3	-5	-22	-3%	-5
Following part:
SMILES	RecA splice inh	Mtb bLac sens	YopH PTP inh	Mtb growth	Arbovirus inh	others
COc1cc(C(C)=O)ccc1OCC(O)CN1CCN(c2ccc(C)cc2C)CC1 (stereo not drawn)	1.2	88	x	x	x
Clc1ccc(/C=N/Nc2nnc(Cl)c3ccccc23)cc1	-1.5	1	11	-3%	-17
COc1ccc(C2C=C(C)Nc3nc(SC)nn32)cc1 (stereo not drawn)	-9.2	-7	8	x	-4
COc1ccc(CN2CCC(CO)(CCOc3ccccc3)CC2)c(OC)c1C	1.7	-5	x	7%	-25
O=C(COC(=O)c1cccnc1Nc1cccc(C(F)(F)F)c1)NC1CCS(=O)(=O)C1 (stereo not drawn)	1.1	1	-13	-2%	19
O=C(CC1CCCC1)Nc1nnc(C2CC2)s1	5.8	4	-39	-9%	5
O=C(CSc1nnc(-c2ccncc2)n1CC1CCCO1)NCc1ccccc1 (stereo not drawn)	-1.5	-2	-4	-6%	7
CN(C[C@H](Cc1ccccc1)N(C[C@H](Cc1cccc2ccccc12)N(CCc1ccccc1)N=O)N=O)N=O	1.9	-8	x	-9%	x
Cc1ccc(S(=O)(=O)n2[nH]c(=O)cc2N)cc1	0.8	-5	x	-18%	3
O=C(NCC1COc2ccccc2O1)C1CCC(CNc2c(N3CCCCC3)c(=O)c2=O)CC1 (stereo not drawn)	x	x	-41	2%	4	Arbovirus inh repeat=-3
CN1CCC(=NNC(=O)CSCc2ccccc2)CC1	-1.0	9	-8	3%	-7
COc1ccc(/C=C2/SC(=S)N(CC(=O)O)C2=O)cc1OCc1ccc(Cl)cc1	20	4	x	x	x
CN(C)C1(CNC(=O)CC(NC(=O)c2ccccc2Cl)c2ccccc2)CCCCC1 (stereo not drawn)	0.1	-4	x	x	x
CC1CCN(C(=O)Cn2nnc(-c3cccs3)n2)CC1	0.0	-4	x	4%	5
COc1cc(/C=C(\NC(=O)c2ccccc2)C(=O)NCC(=O)O)c([N+](=O)[O-])cc1OC	3.8	4	-10	7%	-1
O=C(NCCN1CCCC(O)C1)c1cc(COc2ccc(F)cc2Cl)on1 (stereo not drawn)	0.8	-6	x	x	x
O=C(c1cccc(S(=O)(=O)N2CCOCC2)c1)N1CCCC1	0.1	1	-25	-10%	-4
Cc1ccc(Cn2nc(C)c(NC(=O)c3cc(-c4ccco4)on3)c2C)cc1	3.6	-7	-33	x	7
COc1ccccc1C(=O)O/N=C(\N)c1ccccn1	-4.1	-2	x	-1%	x
Cc1ccccc1Oc1nc2c(C)cccn2c(=O)c1/C=C(\C#N)C(=O)NC1CCS(=O)(=O)C1 (stereo not drawn)	-19	-8	x	-6%	x
CCOCCCNC(=O)C(c1ccc(C)cc1)N(Cc1ccc2c(c1)OCO2)C(=O)c1cnccn1 (stereo not drawn)	-1.6	-4	-5	-2%	2	Arbovirus inh repeat=-3
CC(C)CN(C(=O)c1ccc2c(c1)OCO2)C1CCS(=O)(=O)C1 (stereo not drawn)	1.8	-10	x	x	x
O=c1c(Cc2ccc(F)cc2)c(O)ccn1CCCn1ccnc1	1.0	-4	x	-5%	15
CCOc1ccccc1NC(=O)c1nnn(-c2ccc3c(c2)OCCO3)c1N	-3.3	17	x	x	x
COc1ccc2nc(NC(=O)CNS(=O)(=O)c3cccs3)sc2c1	3.0	4	-27	-3%	-17
Carrying on:
SMILES	RecA splice inh	Mtb bLac sens	YopH PTP inh	Mtb growth	Arbovirus inh	others
CC(C)C(OC(=O)c1ccco1)C(=O)NCc1cccs1 (stereo not drawn)	1.2	11	7	-7%	0
N#Cc1c(-c2ccc(Cl)cc2)c2c([nH]c1=O)-c1ccccc1OC2	-189	5	x	2%	x
O=c1[nH]c2ccc(NCc3ccc(OCc4ccccc4Cl)cc3)cc2[nH]1	-3.3	78	x	x	x
CCOC(=O)C(CC)Sc1nnc2n1C(C)(C)Cc1ccccc1-2 (stereo not drawn)	0.2	1	7	-3%	-3
COc1ccc(-c2csc(NC(CO)c3nc4ccccc4n3CCOCCO)n2)cc1 (stereo not drawn)	6.7	-15	x	-7%	x
COc1ccc(OC)c2c1C(=O)c1ccccc1C2=O	-2.2	2	-31	7%	-2
CC(=O)N(CN1C(=O)C2C3C=CC(C3)C2C1=O)c1cccc(Cl)c1 (stereo not drawn)	0.9	1	x	1%	12

Structures listed so far that have a Cl atom, in the order listed:
SMILES	RecA splice inh	Mtb bLac sens	YopH PTP inh	Mtb growth	Arbovirus inh	others
CC(=O)Nc1sc(/C(C#N)=C/c2ccc(Cl)c(Cl)c2)nc1-c1ccc(C)cc1	x	x	-7	0%	-3
Cc1ccc(OCC(=O)N(Cc2cccc(Cl)c2)C2CCS(=O)(=O)C2)cc1C (stereo not drawn)	2.7	-3	x	x	x
O=S(=O)(NCc1ccco1)c1ccc(Cl)cc1Cl	-1.5	0	x	x	x
COc1cc(OC)c(NC(=O)Cn2cnc3sc(C)c(S(=O)(=O)N4CCOCC4)c3c2=O)cc1Cl	-1.6	-4	x	x	x
COc1ccc(C(=O)NC(CC(=O)O)c2cc([N+](=O)[O-])ccc2Cl)c(SC)c1 (stereo not drawn)	-2.5	-6	x	4%	-10
O=C(O)c1cc(-c2ccc(/C=C3/SC(=S)N(Cc4ccccc4)C3=O)o2)ccc1Cl	x	x	x	-2%	9
O=c1nc(/C=C/c2cc([N+](=O)[O-])ccc2Cl)cc(C(F)(F)F)[nH]1	4.6	7	-11	-7%	-41
Clc1ccc(/C=N/Nc2nnc(Cl)c3ccccc23)cc1	-1.5	1	11	-3%	-17
COc1ccc(/C=C2/SC(=S)N(CC(=O)O)C2=O)cc1OCc1ccc(Cl)cc1	20	4	x	x	x
CN(C)C1(CNC(=O)CC(NC(=O)c2ccccc2Cl)c2ccccc2)CCCCC1 (stereo not drawn)	0.1	-4	x	x	x
O=C(NCCN1CCCC(O)C1)c1cc(COc2ccc(F)cc2Cl)on1 (stereo not drawn)	0.8	-6	x	x	x
N#Cc1c(-c2ccc(Cl)cc2)c2c([nH]c1=O)-c1ccccc1OC2	-189	5	x	2%	x
O=c1[nH]c2ccc(NCc3ccc(OCc4ccccc4Cl)cc3)cc2[nH]1	-3.3	78	x	x	x
CC(=O)N(CN1C(=O)C2C3C=CC(C3)C2C1=O)c1cccc(Cl)c1 (stereo not drawn)	0.9	1	x	1%	12

An excerpt; rates above refer to the full screens.
